RE007 growth inh: qHTS Assay for Inhibitors of the HIV-1 protein Vpr | Potency, µM (highest dose often 92.2 µM), for inactives: at the top dose activity change, negative = less growth | S. pombe RE007 Vpr strain, BacTiter-Glo ATP luminescence, 24 h; control for the full effect not named in the record | 0.21% of 360,000 active; active = well fitted falling curve with a large enough effect; inconclusive = small, poorly fitted or top-dose-only effect; inactive = no such curve, though single readings can be large or run the other way;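 note: nearly all actives have a fitted effect of over 50% in size; the assay follows cell death caused by Vpr and the record does not say whether a fall means rescue or toxicity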
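Fission yeast strain RE007, carrying one chromosomally integrated HIV-1 vpr copy, was seeded at OD 0.01 in PMG+AL medium with 23 nL pinned compound. After 24 h at 30 °C and 99% humidity, viability was read by BacTiter-Glo luminescence.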
2A StopGo: High Throughput Screening for Foot and Mouth Disease Virus Antivirals. human cells with a luciferase reporter of 2A StopGo recoding; control for the full effect not named in the record. 1.2% of 410,000 active. Potency, µM (titrated, usually from 57.9 µM), inactives show at the highest dose signal change, negative = less light. AID 1159524, 2015; active = well fitted falling curve with a large enough effect; inconclusive = small, poorly fitted or top-dose-only effect; inactive = no such curve, though single readings can be large or run the other way; tested in HEK293T cells; note: nearly all actives have a fitted effect of over 45% in size; luciferase light after 4 h
Starred values were filed as active, the others as inactive; ? = inconclusive; & = joins results of further samples; [ ] = another dose, or the depositor's remark. % is set by controls: 0 for no effect and ±100 for the full control effect; potency is the fitted concentration of half-maximal effect. An excerpt; count on the stated rates, not on these rows.

SMILES	RE007 growth inh	2A StopGo
O=C(C[C@@H]1C=C[C@@H](NC(=O)C2CC2)[C@@H](CO)O1)NCc1ccccc1Cl	2%	-8%
CC(=O)NCCNc1nc2cc(-c3ccc(C(=O)N4CCN(C)CC4)cc3)sc2c(=O)n1C	-3%	4%
C[C@@H](O)CNC(=O)c1[nH]cnc1C(=O)Nc1ccc(CNC(=O)OC(C)(C)C)cc1	-12%	-26%
CCOC(=O)C1CCCN(C(=O)c2cccc(S(=O)(=O)NCc3ccccc3)c2)C1 (stereo not drawn)	4%	5%
CCOC(=O)C1=C(COC(=O)CNS(=O)(=O)c2ccc(C)c(C)c2)NC(=O)NC1C (stereo not drawn)	1%	5%
O=C(NNC(=O)C(c1ccccc1)c1ccccc1)c1ccccc1O	7%	-4%
CC(=O)Nc1ccc(-c2ccnc3c2CC(C)(C(=O)Nc2ccc(Cl)c(C(F)(F)F)c2)O3)cc1 (stereo not drawn)	8%	-28%
CCCCNC(=O)c1nc(-c2cccc(C(F)(F)F)c2)oc1-c1ccc(OC(F)(F)F)cc1	-14%	-20%
COCCNC(=O)C1(C)CCCN(Cc2csc(-c3ccc(Cl)cc3)n2)C1 (stereo not drawn)	-26%	-17%
CCOc1ccc(NC(=O)CN(C)C(=O)c2cc3c(s2)CCC3)cc1OCC	11%	-18%
FC(F)(F)c1ccccc1Cc1c(C2CCCCC2)nc2ccc(Cl)cn12	?	1%
CC1(C(=O)NS(=O)(=O)C2CC2)CCN(C(=O)c2ccccc2C(F)(F)F)C1 (stereo not drawn)	4%[18.4 µM]	4%
CNc1cnc(-c2ccc(F)c(F)c2F)cn1	-7%[18.4 µM]	35%[activator]
CC(C)(C)OC(=O)N1CCc2onc(-c3ccccc3F)c2C1=O	-18%	18%
COc1ccccc1CNC(=O)C[C@@H]1CC[C@H]2[C@@H](COC[C@H](O)CN2Cc2ccccc2)O1	7%	-8%
CC(C)(C)n1nnnc1C(c1cccs1)N1CCN(C/C=C/c2ccccc2)CC1 (stereo not drawn)	-7%	-12%
COc1ccc(OC)c(NC(=O)C2(C)CCN2C(C)C)c1 (stereo not drawn)	8%	-10%
CCOC(=O)C1(C)CCCN1C(=O)c1cccc(F)c1 (stereo not drawn)	4%	-4%
CC(=O)Nc1cccc(-c2ccnc3c2CC(C(=O)Nc2cccc(OC(F)(F)F)c2)O3)c1 (stereo not drawn)	-1%	-44%
CC1(C(=O)NS(=O)(=O)c2cccc(Cl)c2)CCN1C(=O)Cc1ccccc1 (stereo not drawn)	1%	5%

Another view of 4 compounds above:
COc1ccccc1CNC(=O)C[C@@H]1CC[C@H]2[C@@H](COC[C@H](O)CN2Cc2ccccc2)O1
  RE007 growth inh = 7%	2A StopGo = -8%
CNc1cnc(-c2ccc(F)c(F)c2F)cn1
  RE007 growth inh = -7%[18.4 µM]	2A StopGo = 35%[activator]
CC1(C(=O)NS(=O)(=O)C2CC2)CCN(C(=O)c2ccccc2C(F)(F)F)C1 (stereo not drawn)
  RE007 growth inh = 4%[18.4 µM]	2A StopGo = 4%
CCOC(=O)C1(C)CCCN1C(=O)c1cccc(F)c1 (stereo not drawn)
  RE007 growth inh = 4%	2A StopGo = -4%

(listing goes on)
SMILES	RE007 growth inh	2A StopGo
CCc1cccc(NC(=O)COC(=O)c2c(-c3ccccc3)noc2C)c1	2%	-13%
O=C(Nc1ccc2c(c1)OCCO2)C(c1ccncc1)n1c(=O)c(-c2ccco2)nc2ccccc21 (stereo not drawn)	5%	12%
O=C1NC[C@@H](CCCCN2C[C@H](Cc3ccccc3)N(CCc3ccccc3)C(=O)C2=O)N(CCc2ccccc2)C1=O	3%	10%
CN[C@H]1C[C@@H](c2ccccc2)N(C(C)=O)C[C@H]1CO	-4%	-15%
CC(=O)N1Cc2cnnn2-c2ccccc2C1(C)C#N (stereo not drawn)	27%	-1%
COc1ccc(NC(=O)C(c2ccnc3ccccc23)n2c(=O)c(-c3ccccc3)nc3ccccc32)cc1 (stereo not drawn)	5%	-7%
CC(=O)C1=CCC(c2ccccc2)N(S(=O)(=O)c2ccccc2C)C1 (stereo not drawn)	12%&8%	-2%&-18%
COc1ccc(NC(=O)Cn2nnc(-c3ccccc3)c2COc2ccc(C(C)=O)cc2)cn1	6%	18%
CCOC(=O)C1(C)CCCCCN1C(=O)c1ccco1 (stereo not drawn)	4%	-19%
CC(C)CCN1C(=O)CSCC1(C)C(=O)NCc1ccccc1 (stereo not drawn)	-4%	-9%
C[C@@H]1CN([C@@H](C)CO)C(=O)CCCn2nncc2CO[C@H]1CN(C)C	-2%	-21%
CCOC(=O)C1=CCN(S(=O)(=O)c2ccccc2C)C1c1ccc(C)cc1 (stereo not drawn)	4%	-30%
O=C(O)C1=C[C@H](c2ccc3c(c2)OCO3)C[C@H](OCCCCO)O1	15%	-6%
COc1ccc(CNC(=O)CC[C@H]2O[C@@H](n3ccc(=O)[nH]c3=O)[C@H](O)[C@@H]2O)cc1	9%	-23%
COc1cc(O)c(C(C)=O)c2c1C=CC(C)(C)O2	-4%	-17%
COc1ccc(CNC(=O)C2CCC(=O)N(C3CCCCCC3)C2)c(OC)c1 (stereo not drawn)	5%	-7%
N#Cc1ccc(C(=O)N2CCCCC2c2cc(C(=O)NCc3ccccc3)no2)cc1 (stereo not drawn)	13%	-13%
Cc1c(C(=O)NCc2ccc3c(c2)OCCO3)sc(=O)n1Cc1cccc(C(F)(F)F)c1	7%[18.4 µM]	-20%
N#Cc1ccccc1NC(=O)C1CCCO1 (stereo not drawn)	-4%	2%
O=C(Nc1nnc([C@H]2C[C@H](O)[C@@H](CO)O2)s1)c1cccc(C(F)(F)F)c1	-2%[18.4 µM]	17%
CN1CC[C@@H]2C(=O)N3CCc4ccc(-c5ccc6c(c5)OCO6)cc4[C@@H]3C[C@@H]21	-12%	-17%
CCC(=O)N1CCC1(C)C(=O)Nc1ccc2scnc2c1 (stereo not drawn)	7%	19%
CCN(CC)C(=O)C1=C(C)N(Cc2ccc(F)cc2)C(=O)C(CC(=O)NCCc2ccccn2)C1 (stereo not drawn)	?	-23%
C[C@H](CO)N1C[C@H](C)[C@H](CN(C)C(=O)Nc2cccc(F)c2)Oc2cc(C#CC3(O)CCCC3)ccc2S1(=O)=O	-9%	-6%
O=c1[nH]c2ccccc2cc1-c1nnn(-c2ccc(Cl)c(Cl)c2)n1	-3%	-16%
CC(C)(C)N1C(=O)c2ccccc2NC(=O)C1C(=O)NCCc1ccccc1 (stereo not drawn)	0%	5%
CCOC1=C2[C@@H](CN(S(=O)(=O)c3ccc(C)cc3)[C@H]2c2cccc3ccccc23)[C@H]2C(=O)N(c3ccccc3)C(=O)[C@H]2C1	9%	30%
Cc1cccc(C(=O)NNC(=O)C2CCCCC2)c1O	-6%	8%
CC(C)N(C)c1ncnc2c1ncn2[C@H]1CN(Cc2cccs2)C[C@@H](CO)O1	-1%	-16%
Cc1cc(C)n(CCNC(=O)[C@H]2O[C@@H](n3ccc(N)nc3=O)[C@H](O)[C@@H]2O)n1	1%	-14%
Cc1cccc(C)c1-n1nnnc1C(c1ccnc2ccccc12)N1CCN(C/C=C/c2ccccc2)CC1 (stereo not drawn)	-19%	-14%
COC(=O)[C@@]12C[C@@H](CC(=O)N3CCN(C(=O)c4ccco4)CC3)C(=O)N(Cc3ccccc3)C1=CCC(C)(C)C2	-6%	-14%
COc1cccc(NC(=O)N(C)C[C@@H]2OCc3cnnn3CCCC(=O)N([C@@H](C)CO)C[C@H]2C)c1	-11%	0%
CSc1ccccc1CNc1nc(NCC2CC2)nc2ccsc12	-13%	?
CC(=O)NCCNc1nc(NCc2cccs2)nc2ccsc12	-25%	-1%
COc1ccc(N2CCN(C(=O)c3ccc(CS(=O)c4cccc(Cl)c4)o3)CC2)cc1 (stereo not drawn)	-2%	?
OC(c1cccc(F)c1)c1ncc(-c2ccc(Oc3ccccc3)cc2)[nH]1 (stereo not drawn)	13%	1%
Cc1cc(OCC(=O)Nc2nnc(C3CC3)s2)ccc1Cl	-6%	37%[activator]
Cc1ccc(C(=O)N2[C@@H]3CN(C)C(=O)[C@@]2(C)[C@H]2C(=O)N(Cc4ccccc4)C(=O)[C@@H]32)cc1	-4%	-7%
Cc1cccc(C)c1NC(=O)C(c1ccccc1)N1CCC(c2ccccc2)CC1 (stereo not drawn)	-7%	-28%

One compound at a time (already shown). Values in the order: RE007 growth inh, 2A StopGo
Entry for COc1ccc(N2CCN(C(=O)c3ccc(CS(=O)c4cccc(Cl)c4)o3)CC2)cc1 (stereo not drawn) = -2%, ?
Entry for Cc1cc(OCC(=O)Nc2nnc(C3CC3)s2)ccc1Cl = -6%, 37%[activator]
Entry for Cc1cccc(C)c1-n1nnnc1C(c1ccnc2ccccc12)N1CCN(C/C=C/c2ccccc2)CC1 (stereo not drawn) = -19%, -14%

Further compounds follow.
SMILES	RE007 growth inh	2A StopGo
O=C(Cc1ccccc1)NCC(=O)N1CCN(c2ccc(F)cc2)CC1	-12%	-21%
Cc1ccccc1-c1cnc(C(O)c2ccc(F)cc2C)[nH]1 (stereo not drawn)	-19%[18.4 µM]	36%[activator]
CNC(=O)OCc1cocc1COC(=O)NC	-5%	-15%
CC(C)C[C@@H]1O[C@H](CCc2ccccc2)Cc2[nH]c(=S)[nH]c(=O)c21	38%	?
CCC1CCCCN1Cc1c(O)ccc2c(=O)c(-c3ccccc3OC)coc12 (stereo not drawn)	8%	-18%
COC(=O)c1ccc(Cn2c(C)c(C(=O)NCc3cccc(C(F)(F)F)c3)sc2=O)o1	8%[18.4 µM]	-22%
CCOC(=O)CSc1nnc(-c2ccc(S(=O)(=O)NCc3cccs3)cc2)o1	-4%	-4%
CC1(Oc2cccc(C#N)c2)CCN(Cc2csc3ccccc23)C1 (stereo not drawn)	-20%	-2%
CCc1nc2ccc(C(=O)NCCCN3CCCC3=O)cn2c1N(C)C(=O)c1cccc(OC)c1	9%	-9%
CCC/C=C/c1ccc(CN2C(CC(C)C)C(=O)N(Cc3cn(CCC4OCCO4)nn3)CCS2(=O)=O)cc1 (stereo not drawn)	1%	?
COC(=O)[C@]12CCCCC=C1N(Cc1ccco1)C(=O)[C@H](CC(=O)NCc1ccccc1)C2	3%	-11%
CC(=O)C(Cc1ccccc1)NC(=O)COC(=O)c1cc(S(=O)(=O)N2CCOCC2)ccc1F (stereo not drawn)	18%	22%
CCN1C[C@@H]2[C@@H]3C(=O)N(C)C(=O)[C@@H]3[C@](C)(C1=O)N2C(=O)c1ccc(C)cc1	6%	-13%
CN(CCCn1cnc2c(OCc3ccccc3)ncnc21)CCc1ccccn1	-3%	4%
CC(C)C[C@@H](CN)NC(=O)c1nc[nH]c1C(=O)N[C@@H](C)C(=O)CNC[C@H](C)NC(=O)c1nc[nH]c1C(=O)N[C@@H](CC(=O)O)C(=O)O	7%	-11%
Cc1ccc(S(=O)(=O)C[C@@H]2OC[C@H](CO)N2S(=O)(=O)c2ccc(C)cc2)cc1	5%	-6%
Cc1c(C(=O)NCc2cccc(C(F)(F)F)c2)sc(=O)n1Cc1ccc(S(=O)(=O)N(C)C)cc1	-4%[18.4 µM]	?
O=C(NCCc1ccccc1F)C1CC(=O)N(c2ccc3c(c2)OCCO3)C1 (stereo not drawn)	12%	-14%
COc1cc(C(O)c2nc(-c3csc4ccccc34)cs2)ccc1F (stereo not drawn)	1%[18.4 µM]	1%
NC(c1csc(NC(=O)Nc2cccc(C(F)(F)F)c2)n1)C1CCCCC1 (stereo not drawn)	50%	-20%
CCOC(=O)[C@]12CCCC=C1N(Cc1ccc3c(c1)OCO3)C(=O)[C@H](CC(=O)NCc1ccc(OC)c(OC)c1)C2	3%	-11%
CCc1cccc(NC(=O)COC(=O)CSc2ccc(C)cc2)c1	1%	3%
CCc1nc2ccc(C(=O)NCc3ccccc3OC)cn2c1N(CC)CCOC	-14%[18.4 µM]	0%
O=C(NC1CCCCC1)C1c2ccccc2OCC(=O)N1Cc1ccc2c(c1)OCO2 (stereo not drawn)	3%	5%
CCc1nc2c(OCC(N)=O)cccn2c1N(C)C(=O)C(C)C	15%	-13%
CC(C)CCNC(=O)C1CC2Cn3c(nc4cc(Cl)c(Cl)cc43)C2N1C (stereo not drawn)	-8%	?
Cc1cc(C)nc(Nc2nc(C(N)CCc3ccccc3)cs2)n1 (stereo not drawn)	5%	-12%
CC(C)n1c(/C=C/[C@H](O)C[C@H](O)CC(=O)O)c(-c2ccc(F)cc2)c2ccccc21	-2%	-8%
O=C(Nc1ccc2c(c1)OCCO2)C1C(=O)Nc2ccccc2C(=O)N1C1CCCCC1 (stereo not drawn)	2%	-3%
CCC1(CC)C(=O)Nc2ccccc21	-10%	-12%
C#CCN(C[C@@H]1[C@@H](OC(=O)NC2CC2)[C@@H](OC(=O)NC2CC2)Cn2c(=O)n(CCCCCC)c(=O)n21)S(=O)(=O)c1ccc(C)cc1	-5%	?
COC(=O)[C@]12CCCCC=C1N(Cc1ccc(Cl)cc1Cl)C(=O)[C@H](CC(=O)NCc1cccc(C(F)(F)F)c1)C2	2%	-17%
Nc1ncnc2c1ncn2[C@@H]1O[C@H](C(=O)NCc2ccc(OC(F)(F)F)cc2)[C@@H](O)[C@H]1O	2%	0%

Assay outcomes from PubChem BioAssay.
